CSC inhib = cancer stem cell inhibition. cancer stem cell-like cells viability, luminescence. hit rate 1.1% among 300,000. inhibition, % at 7.5 µM. AID 2717;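 active means mean at 75% or more and at least half the replicates too; tested in HMLE shEcad cells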;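 further: 0% = median of negative and 100% = median of positive control wells; the first replicate is given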
Env fusion inh = blocks HIV Env-driven cell-cell fusion. HeLa-JRFL Env/CEM21 cell fusion, luciferase. inhibition, % at 12.3 µM. hit rate 1.1% among 360,000. AID 651610;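 active means mean replicate inhibition score of at least 50 and every replicate individually at or above 50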;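 further: 0% = plate neutral controls and 100% = maraviroc near 300 nM; one replicate is shown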
PABP FP inh = PABP-poly(A) binding inhibition; hit rate 1% among 290,000; P11940; inhibition, % at 35 µM; PABP-poly(A) RNA binding, fluorescence polarization; AID 2014;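 active means 50% or more with normal probe brightness, or confirmed in later tests; about a fifth of its hits are not listed in these tables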;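 further: calls also rest on retests at 20 µM and on dose response follow-up; controls were probe without protein and protein plus probe with vehicle; some compounds called inactive have numbers as strong as hits; many hits fall short of the cut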
Target sequence (P11940 whole entry, looked up): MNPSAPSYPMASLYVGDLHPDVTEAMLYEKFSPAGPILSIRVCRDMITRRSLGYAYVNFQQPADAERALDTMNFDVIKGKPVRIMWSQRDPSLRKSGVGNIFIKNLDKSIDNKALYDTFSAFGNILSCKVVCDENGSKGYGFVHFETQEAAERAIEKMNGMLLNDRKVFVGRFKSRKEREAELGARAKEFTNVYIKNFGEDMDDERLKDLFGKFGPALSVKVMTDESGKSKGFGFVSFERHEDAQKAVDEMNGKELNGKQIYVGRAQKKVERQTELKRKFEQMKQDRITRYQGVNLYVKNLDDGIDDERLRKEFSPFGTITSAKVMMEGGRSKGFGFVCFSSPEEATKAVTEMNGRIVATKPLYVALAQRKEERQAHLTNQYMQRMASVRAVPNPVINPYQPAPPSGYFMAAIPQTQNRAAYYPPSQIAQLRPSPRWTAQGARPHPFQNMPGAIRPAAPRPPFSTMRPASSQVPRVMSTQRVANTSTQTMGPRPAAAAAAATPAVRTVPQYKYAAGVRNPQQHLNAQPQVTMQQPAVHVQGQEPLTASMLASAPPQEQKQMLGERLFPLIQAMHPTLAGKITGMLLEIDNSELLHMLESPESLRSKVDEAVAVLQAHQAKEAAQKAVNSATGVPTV
Yeast UUG start = yeast start codon fidelity modulation | S. cerevisiae UUG-firefly luciferase reporter, luminescence/redox ratio | activity score, % at 18.7 µM | hit rate 0.13% among 350,000;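 active means replicate mean at a twofold rise or more, about +100% in these data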;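 further: firefly luciferase made from a UUG start codon reports start codon fidelity; reporter light over untreated wells divided by growth signal over untreated wells; some hits fall short of that in this replicate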
eIF4H FP inh = inhibitors of RNA binding by human eIF4H. hit rate 0.94% among 290,000. eIF4H fluorescence polarization binding assay. Q15056. inhibition, % at 35 µM;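 active means 50% or more with normal probe brightness, or confirmed in later tests; about a fifth of its hits are not listed in these tables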;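 further: calls also rest on retests at 20 µM and on dose response follow-up; 0% = protein and probe with vehicle and 100% = probe without protein; strong numbers were not always called active; many hits fall short of the cut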
MT1-MMP act inh = inhibitors of human MT1-MMP activation | P50281 | HT1080 RFP-PRO-GFP cells, GFP/RFP ratio fluorescence, overnight; percent of plate control window, DMSO zero | GFP/RFP ratio change, % at 20 µM | hit rate 0.061% among 360,000;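 active means GFP/RFP ratio change of at least 30% with cell ATP level not reduced by more than half and red fluorescence within 50% of control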; further: strong numbers were not always called active
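Read-out: GFP/RFP fluorescence ratio; Test system: RFP-PRO-GFP reporter HT1080 cells; Compound dosing: single-point 20 µM compound, 1% DMSO; Times: overnight compound exposure at 37 °C.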
Rce1 inhib = blocks yeast Ras-converting enzyme; Q03530; yeast membranes, quenched prenylated peptide cleavage fluorescence; hit rate 0.27% among 290,000; calls only;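 active means fall in fluorescence gain of 50% or more versus controls, with final raw signal at or below 3038400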;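 further: plate controls were neutral control wells for no effect and wells lacking membranes for full effect; tested at 10 µM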
Target sequence (Q03530 whole entry, looked up): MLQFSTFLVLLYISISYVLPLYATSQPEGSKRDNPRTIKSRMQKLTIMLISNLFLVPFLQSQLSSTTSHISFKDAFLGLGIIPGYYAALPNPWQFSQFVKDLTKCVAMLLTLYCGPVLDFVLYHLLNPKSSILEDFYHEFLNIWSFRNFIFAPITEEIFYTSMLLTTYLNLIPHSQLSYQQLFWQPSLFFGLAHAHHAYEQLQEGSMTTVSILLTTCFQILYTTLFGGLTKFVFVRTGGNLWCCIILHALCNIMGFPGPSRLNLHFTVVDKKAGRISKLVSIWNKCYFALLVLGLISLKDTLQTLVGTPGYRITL
MT1-MMP act inh RFP = also measured in MT1-MMP act inh; calls as there; RFP signal change, %; measured here: RFP expression control read;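 0 = vehicle wells; hits needed this value within 50% of zero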
An asterisk follows results filed as active; i = inactive; · = not tested or not shown; [ ] = another dose, or the depositor's remark.

SMILES,CSC inhib,Env fusion inh,PABP FP inh,Yeast UUG start,eIF4H FP inh,MT1-MMP act inh,MT1-MMP act inh RFP,Rce1 inhib
COc1ccc(-c2nnc(SCC(=O)N3CCCC3=O)n2N)cc1OC,6,·,·,-8,·,1,1,·
Cc1ccc(S(=O)(=O)Nc2cccc3ncccc23)s1,-4,·,-1,0,11,-43,-31,i
COc1cccc(N2CCN(C(=O)c3ccc(OC)c(S(=O)(=O)NC4CC4)c3)CC2)c1,·,19,·,-8,·,1,3,·
COc1ccc(C(=O)N2CCCC(C(=O)N3CCN(c4ccccc4)CC3)C2)cc1 (centres undefined),-10,16,-3,1,0,-1,-1,i
Cc1ccccc1N1CC(C(=O)Nc2nnc(SCCC3OCCO3)s2)CC1=O (centres undefined),-4,-11,11,-2,16,-1,1,i
Cc1nc2ncnn2c(N2CCN(c3cccc(C(F)(F)F)c3)CC2)c1C,7,60*,-11,-8,1,-8,-18,i
O=c1c(C=NCC2CCCO2)c(-c2ccccc2)[nH]n1-c1ccc([N+](=O)[O-])cc1 (centres undefined),36,3,7,·,-13,4,-6,i
O=C1C2C(c3ccccc3)C=CC(c3ccccc3)C2C(=O)N1c1ccncc1 (centres undefined),18,·,-1,10,-1,-6,2,i
COc1cccc(CN(C(=O)Cn2nnc(-c3ccccc3F)n2)C(C(=O)NC(C)(C)C)c2ccncc2)c1 (centres undefined),-16,-16,-1,·,-10,-21,-15,i
COc1ccc(S(=O)(=O)N2CCOC23CCN(S(=O)(=O)c2c(C)cc(C)cc2C)CC3)cc1,3,·,·,-14,·,-5,-4,i
O=C1c2ccccc2C(Nc2ccc(Cl)cc2)N1CCN1CCOCC1 (centres undefined),·,-16,-8,5,1,-3,2,i
Cc1ccc(N2CC(C(=O)Nc3cc(C)on3)CC2=O)cc1 (centres undefined),-10,·,8,-5,7,2,0,i
CCOC(=O)c1c(NC(=O)COC(=O)Cc2ccccc2[N+](=O)[O-])sc(C(=O)N(C)C)c1C,1,-12,·,-10,·,1,3,i
COc1ccc(-c2c(-c3ccc4c(c3)OCO4)c3ccccc3n2C)cc1,·,23,·,-8,·,-2,-4,·
CCOC(=O)C1CCN(C(=O)COc2ccc(N(C)S(=O)(=O)c3ccc(OCC)cc3)cc2)CC1,15,6,-7,·,-2,9,-1,i
COc1ccc(-c2csc(NC(=O)CSc3nnnn3C)n2)c(OC)c1,12,-67,·,-19,·,4,0,i
CSCCC1NC(=O)N(CC(=O)N2CCc3ccccc3C2)C1=O (centres undefined),·,2,·,4,·,-1,3,·
COc1ccc(CNC(=O)C(=O)NCC2OCCN2S(=O)(=O)c2ccccc2)cc1 (centres undefined),0,6,3,-16,-7,3,8,i
CCc1nc2ccc(C(=O)N3CCN(c4cccc(C)c4C)CC3)cc2nc1CC,27,28,2,-18,-9,-1,7,i
O=C(C(Cc1ccccc1)N1C(=O)c2ccccc2C1=O)N1CCc2ccccc21 (centres undefined),9,·,-3,-12,1,-6,-8,i
CCc1nnc(NC(=O)c2ccc(S(=O)(=O)N(C)Cc3ccccc3)cc2)o1,25,16,-11,-18,0,5,-2,i
CC(C)c1nnc(NC(=O)C2CCCN2C(=O)Nc2ccccc2F)s1 (centres undefined),-9,-5,-9,-11,-9,1,1,i
Cc1ccc(C(=O)NC(N2CCCC2)C(Cl)(Cl)Cl)cc1 (centres undefined),-5,-143,8,-10,-3,-5,0,i
COC(=O)c1ccc(N=CC2=C(O)CC(c3ccccc3)CC2=O)cc1 (centres undefined),-5,0,13,-5,-3,5,2,i

Rewritten with each value named: part of the list above
mol: CSCCC1NC(=O)N(CC(=O)N2CCc3ccccc3C2)C1=O (centres undefined)
  CSC inhib = ·
  Env fusion inh = 2
  PABP FP inh = ·
  Yeast UUG start = 4
  eIF4H FP inh = ·
  MT1-MMP act inh = -1
  MT1-MMP act inh RFP = 3
  Rce1 inhib = ·

mol: Cc1ccc(C(=O)NC(N2CCCC2)C(Cl)(Cl)Cl)cc1 (centres undefined)
  CSC inhib = -5
  Env fusion inh = -143
  PABP FP inh = 8
  Yeast UUG start = -10
  eIF4H FP inh = -3
  MT1-MMP act inh = -5
  MT1-MMP act inh RFP = 0
  Rce1 inhib = i

Additional structures follow:
SMILES,CSC inhib,Env fusion inh,PABP FP inh,Yeast UUG start,eIF4H FP inh,MT1-MMP act inh,MT1-MMP act inh RFP,Rce1 inhib
S=C(NC1CCCCC1)N1CCN(Cc2ccccc2Cl)CC1,18,30,-14,·,-14,2,-3,i
COC(=O)c1cc(C(=O)NC(C)C2CC3CCC2C3)cc([N+](=O)[O-])c1 (centres undefined),-6,2,7,-9,1,0,-4,i
CC(OC(=O)CCC1CCCCC1)C(=O)Nc1ccc(S(N)(=O)=O)cc1 (centres undefined),-12,·,·,·,·,1,0,i
O=C(Nc1cccc(F)c1)C1CCN(C(=O)NCc2ccccc2)CC1,-7,6,10,-14,-3,1,0,i
Cc1ccc(CCNC(=O)CCS(=O)(=O)Cc2ccc(C)cc2)cc1,4,33,13,-6,1,-2,-3,i
O=C(CSc1nc(N2CCOCC2)nc(N2CCOCC2)n1)Nc1ccc([N+](=O)[O-])cc1,26,-24,-1,4,7,3,2,i
CNC(=O)c1ccc(NC(=O)CC2SC(N3CCCC3)=NC2=O)cc1 (centres undefined),·,5,·,-19,·,1,2,·
c1nc(NC2CCCCCC2)c2[nH]cnc2n1,-17,30,-28,-32,-15,-2,-2,i

Shown with values under each structure: part of the list above
Results follow in this order: CSC inhib	Env fusion inh	PABP FP inh	Yeast UUG start	eIF4H FP inh	MT1-MMP act inh	MT1-MMP act inh RFP	Rce1 inhib
O=C(CSc1nc(N2CCOCC2)nc(N2CCOCC2)n1)Nc1ccc([N+](=O)[O-])cc1
→ 26	-24	-1	4	7	3	2	i
Cc1ccc(CCNC(=O)CCS(=O)(=O)Cc2ccc(C)cc2)cc1
→ 4	33	13	-6	1	-2	-3	i
O=C(Nc1cccc(F)c1)C1CCN(C(=O)NCc2ccccc2)CC1
→ -7	6	10	-14	-3	1	0	i
COC(=O)c1cc(C(=O)NC(C)C2CC3CCC2C3)cc([N+](=O)[O-])c1 (centres undefined)
→ -6	2	7	-9	1	0	-4	i

Ordered by the number under Env fusion inh (low to high): 6 of the compounds above.
Molecule	Env fusion inh	Yeast UUG start	MT1-MMP act inh	MT1-MMP act inh RFP	Rce1 inhib
COc1ccc(-c2csc(NC(=O)CSc3nnnn3C)n2)c(OC)c1	-67	-19	4	0	i
O=C(CSc1nc(N2CCOCC2)nc(N2CCOCC2)n1)Nc1ccc([N+](=O)[O-])cc1	-24	4	3	2	i
CC(C)c1nnc(NC(=O)C2CCCN2C(=O)Nc2ccccc2F)s1 (centres undefined)	-5	-11	1	1	i
CSCCC1NC(=O)N(CC(=O)N2CCc3ccccc3C2)C1=O (centres undefined)	2	4	-1	3	·
COc1ccc(C(=O)N2CCCC(C(=O)N3CCN(c4ccccc4)CC3)C2)cc1 (centres undefined)	16	1	-1	-1	i
COc1cccc(N2CCN(C(=O)c3ccc(OC)c(S(=O)(=O)NC4CC4)c3)CC2)c1	19	-8	1	3	·

(further entries)
SMILES,CSC inhib,Env fusion inh,PABP FP inh,Yeast UUG start,eIF4H FP inh,MT1-MMP act inh,MT1-MMP act inh RFP,Rce1 inhib
O=C1C2C3C=CC(C3)C2C(=O)N1c1ccc2c(c1)CCC2 (centres undefined),-6,·,4,-14,-13,-4,2,i
CN(CC(=O)Nc1ccc(Cl)c(Cl)c1)C(=O)C1CCC1,-13,5,·,·,·,5,-2,·
COc1ccc(C(=O)NCCOc2ccccc2Cl)c(OC)c1OC,-11,-26,-2,6,-1,-1,-1,i
COc1ccccc1C(=O)N/C(=C/c1ccc(Br)cc1)C(=O)N1CCCC1,-7,36,1,·,14,-3,-3,i
O=C(COC(=O)c1n[nH]c2ccccc12)NC(=O)NC12CC3CC(CC(C3)C1)C2,11,-65,-17,-1,6,1,-4,i
CS(=O)(=O)N1CCN(c2ccc(NC(=O)c3cccnc3Cl)cc2)CC1,-16,-20,8,5,-2,5,3,i
CCCCC(=O)NC(c1ccco1)c1c(O)ccc2ccccc12 (centres undefined),-22,·,8,4,11,4,-5,i
O=C1CCc2cc(S(=O)(=O)NCc3ccccc3Cl)ccc2N1,-14,·,·,-3,·,-1,-1,·
CCCC(O)(CCN1CCCCC1)c1ccc(OCC)cc1 (centres undefined),·,-23,1,-25,0,3,8,i
Cc1ccnc(NC(=O)CNC(=O)c2ccc(Br)o2)c1,-8,-13,·,-18,·,2,1,i
COc1ccccc1N(CCOc1ccccc1)S(=O)(=O)c1ccccc1,8,14,·,-9,·,3,-2,·
CCOc1ccccc1C(=O)N/N=C/c1c[nH]c2ccccc12,-6,-6,-8,-26,1,5,3,i
Cc1noc(C)c1C(=O)OCC(=O)Nc1cccc(S(N)(=O)=O)c1,-4,-5,4,·,-8,-3,-3,i
CCOC(=O)C(N)CSC1CC(=O)N(c2ccc(OCC)cc2)C1=O (centres undefined),-6,4,4,-9,-3,-2,-1,·
O=S(=O)(NC1=NCCCCC1)c1ccc2sc(NS(=O)(=O)c3ccc4ccccc4c3)nc2c1,-5,8,1,-8,2,1,-5,i
O=C(NN=C1CCCC1)NC1CCCCC1,16,4,8,-16,-4,-1,2,i
NS(=O)(=O)c1ccc(CCNC(=O)c2ccccc2[N+](=O)[O-])cc1,8,-28,7,·,-4,1,2,i
O=C(COC(=O)c1ccc([N+](=O)[O-])cc1)Nc1ccccc1C(=O)NC1CC1,3,·,·,-18,·,2,-1,·
Cc1ccn2c(=O)nc(SCc3cccc(C(F)(F)F)c3)nc2c1,31,-7,12,·,-7,1,-3,i
CCOc1cccc(NC(=O)C2CCCN(S(=O)(=O)c3ccc(-n4cnnn4)cc3)C2)c1 (centres undefined),-4,-27,8,·,-8,-5,-7,i
OC1(CN2CCOCC2)C2CN3CCN(C2)CC1(c1ccccc1)C3 (centres undefined),-7,·,5,-15,-6,-26,-10,i
O=C(NCc1cccnc1)c1c(O)c2cccc3c2n(c1=O)CCC3,-1,2,-2,·,-7,4,2,i
Cc1ccc2c(c1)N(CC(=O)N1CCOCC1)C(=O)C(C)O2 (centres undefined),18,1,2,-2,0,5,2,i
O=C(C[C@@H]1CC[C@H](NC(=O)Nc2ccc(F)cc2)[C@@H](CO)O1)NCc1cccc(F)c1,·,-1[16.7 µM],·,-7,·,3,2,·
CCOc1ccc(Br)cc1S(=O)(=O)Nc1ccc(C(=O)Nc2ccc(C)cc2)cc1,12,-8,-12,·,7,1,-8,i
O=C(CSc1nc2ccccc2[nH]1)NCc1ccc2c(c1)OCO2,-8,·,-1,·,-8,2,0,i
COc1ccc(S(=O)(=O)N(C)c2ccc(OC(=O)C(C)Oc3ccc(F)cc3)cc2)cc1 (centres undefined),1,0,·,-9,·,-2,6,i
COCCN(Cc1nc(-c2ccc(-c3ccccc3)cc2)oc1C)C(C)C,-6,-114,2,-8,2,1,-1,i
O=[N+]([O-])c1cc(Cl)ccc1Sc1ccccn1,4,-3,11,-15,-12,10,7,i
O=C(Oc1ccc2c(c1)OCC2=O)c1ccccc1,-11,-58,-2,-17,0,2,4,i
CCOc1ccccc1/C=C/c1onc(C)c1S(=O)(=O)N1CCC(C(=O)NC)CC1,·,1,-7,-16,-1,-5,-2,i
CCc1nnc(NC(=O)Cc2cccs2)s1,2,-4,10,·,19,-1,4,i
Cc1occc1-c1nnc(SCC(=O)NCc2cccs2)n1CC1CCCO1 (centres undefined),·,·,3,-10,1,12,1,·
Cc1ccc(OC2CCN(C(=O)[C@H]3O[C@@H](n4ccc(N)nc4=O)[C@H](O)[C@@H]3O)CC2)cc1,·,-42,·,4,·,2,4,·
O=C(CSc1nnc(-c2ccncc2)n1Cc1ccco1)Nc1ccccc1F,-7,11,2,-5,-5,-1,0,i
CCC(C)NC(=O)c1c(N)n(/N=C/c2ccccn2)c2nc3ccccc3nc12 (centres undefined),·,-45,-3,-5,4,-1,-20,i

High-throughput results as filed in PubChem.
